# Screens from PubChem BioAssay.
# Choline anaer gr: blocks anaerobic gram-negative growth on choline; calls only; Gram-negative bacterium anaerobic choline minimal medium, absorbance growth; stronger effect = lower value; many inactives read as strong as hits in the columns shown; actives 0.2% (n = 55,000);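 active = growth z-score on choline under -2 at 7 or 20 h with little or no fall on glycerol, limits in tiers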;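 also: stock transfer was 300 nL into about 50 µL; the organism is E. coli; final concentration not given here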
# Choline anaer gr early: recorded beside Choline anaer gr, whose call it bears; z-score; measured here: choline growth z-score, timepoint 1;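 score of optical density at 7 h as mean of two plates; lower means less growth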
# Numbers without * were called inactive; i = inactive; & = joins results of further samples. These rows are one share of the data; count on the stated rates, not on these rows.
Choline anaer gr early,Choline anaer gr,Molecule
-0.18,i,CCC(=O)Nc1ccccc1Sc1nc(Cl)nn1Cc1ccccc1
-0.43,i,Cc1noc2nc(C)n(Cc3cccc(F)c3)c(=O)c12
-0.21,i,CC(=O)N1CCCSc2ccc(S(=O)(=O)NC(C)C)cc21
-0.47,i,Cn1c(C(=O)N2CCc3ccccc3C2)cc2c(=O)oc3ccccc3c21
-0.01,i,CCOc1ccc(N(Cc2nc3nc(C)cc(C)n3n2)C(=O)C(C)C)cc1
0.65,i,Cc1cc(C)cc(NC(=O)N2CCN(Cc3nc4cccnc4n3-c3ccccc3)CC2)c1
0.69,i,COc1ccc(NC(=O)c2nnc(C3CCN(C(=O)Nc4ccc(C)c(C)c4)CC3)s2)cc1
0.96,i,CCC(Sc1nc2ncccc2[nH]1)C(=O)Nc1ccccc1Cl (stereo unspecified)
-0.42,i,c1ccc(CN2CCn3c(nc4ccccc43)C2)cc1
0.19,i,COc1ccc(N2CCN(C(=O)Cn3ccc4c(SCc5ccc(F)cc5)nccc43)CC2)cc1
-0.8,i,CCCSc1nc2c(c(=O)[nH]1)CCCC2
0,i,Cc1cc2c(cc1S(=O)(=O)N(C)CC(=O)Nc1nccs1)OC(C)C(=O)N2 (stereo unspecified)
-0.02,i,Cn1cnc(S(=O)(=O)N2CCC(C(=O)Nc3ccc(F)c(Cl)c3)CC2)c1
1.05,i,COc1ccc(S(=O)(=O)N2CC(=O)N(Cc3ccccc3)C(C)(C(=O)NC3CCCCC3)C2)cc1 (stereo unspecified)
-0.32,i,COc1ccc(NC(=O)C2CCN(S(=O)(=O)c3cc4c(cc3C)NC(=O)CO4)CC2)cc1OC

# Next part; the last two above are carried over.
Choline anaer gr early,Choline anaer gr,Molecule
1.05,i,COc1ccc(S(=O)(=O)N2CC(=O)N(Cc3ccccc3)C(C)(C(=O)NC3CCCCC3)C2)cc1 (stereo unspecified)
-0.32,i,COc1ccc(NC(=O)C2CCN(S(=O)(=O)c3cc4c(cc3C)NC(=O)CO4)CC2)cc1OC
-0.22,i,CCCc1cc(Sc2ccc(NC(C)=O)cc2)n2ncnc2n1
-0.19,i,CNC(=O)c1ccc(NC(=O)N2CCCCc3ccccc32)cc1
-0.08,i,C=CCn1c(CN(c2ccc(F)cc2)S(C)(=O)=O)nnc1SCC(N)=O
0.22,i,Cc1ccnc(NC(c2ccccc2)c2cc(C)sc2NC(=O)c2ccccc2)c1 (stereo unspecified)
1.16,i,COc1ccc(-c2nc(CCNC(=O)COc3ccccc3Cl)cs2)cc1
-1.27,i,CCOc1ccc(-n2nnnc2CNC(=O)Nc2ccc(Cl)cc2)cc1
0.56,i,Cc1ccc(-c2nc3n(CC(=O)NC(C)C)c4c(c(=O)n3n2)CCC4)cc1
-0.17,i,CC1(C(=O)NC2CCCC2)Cn2c(ccc2-c2ccccc2)C(=O)N1Cc1ccccc1Cl (stereo unspecified)
0.46,i,O=C(NCCC1=CCCCC1)C1CCN(c2ccc(-c3ccc(F)cc3)nn2)CC1
-0.15,i,Cc1cc(C(=O)N2CCCC2)c2cccc(C)c2n1
-1.18,i,O=C(Nc1ccc(N2CCCN(c3ncccn3)CC2)cc1C(=O)O)c1ccccc1Cl
1.02,i,O[Si](CCCN1CCCCC1)(c1ccc(F)cc1)C1CCCCC1 (stereo unspecified)
-0.46,i,Cc1[nH]nc2c1C(c1ccc(O)c(O)c1)CC(=O)N2 (stereo unspecified)
-0.52,i,COc1cc(OC)c(NC(=O)CCc2nnc(C(=O)Nc3ccc(C)cc3)s2)cc1Cl
0.9,i,O=C(Nc1cc(F)c2nc(N3CCCC3)ccc2c1)c1cccc(Cl)c1
-0.82,i,Cc1ccc(S(=O)(=O)N2CCC(c3nc(-c4cccc(C(=O)N5CCCCC5)c4)no3)CC2)cc1
0.38,i,O=C(Nc1ccc(-c2cc3cc(Cl)ccc3[nH]2)cc1)c1cnccn1
-0.38,i,Cc1nc(CN2C(=O)COc3ccc(S(=O)(=O)N(C)Cc4ccccc4)cc32)no1
0.1,i,CCOC(=O)c1[nH]c(C)c(CCC(=O)N2CCCC(C(=O)NCCCN3CCN(C)CC3)C2)c1C (stereo unspecified)
-0.34,i,O=C(NCc1cccnc1)c1ccc2c(c1)N(Cc1ccccc1)CCS2
1.03,i,Cc1cccc(N2C(=O)N(c3cccc(C)c3)C3CS(=O)(=O)CC32)c1 (stereo unspecified)
-0.07,i,COCCCNC(=O)c1ccc(Cn2c(=O)c3cc(OC)c(OC)cc3n(C)c2=O)cc1
1.56,i,CN1C(=O)c2cc(C(=O)NCc3ccccc3)nn2CC1(C)C(=O)NC1CCCC1 (stereo unspecified)
0.65,i,CC1Oc2ccc(S(=O)(=O)N3CCN(C(=O)c4cc5ccccc5[nH]4)CC3)cc2NC1=O (stereo unspecified)
0.6,i,Cc1ccc(C2CCCCCN2C(=O)Nc2ccc3c(c2)OCCO3)s1 (stereo unspecified)
-0.33,i,CC(C)n1nc2c(S(=O)(=O)N3CCOCC3)cccn2c1=O
0.11,i,COc1cc(CN2CCCC2c2cc(C(C)C)on2)cc(OC)c1 (stereo unspecified)
1.07&0.79,i,C=C1C[C@@H](O)[C@H](/C=C/[C@@H](O)C(C)(C)CCCC)[C@H]1C/C=C\CCCC(=O)O
0.94,i,CC(=O)Nc1ccc2nc(N3CCC(C(=O)Nc4cc(C)cc(C)c4)CC3)cc(C)c2c1
0.4,i,O=C(N[C@H](Cc1ccccc1)C(=O)NCc1cscn1)C1CC1
0.5,i,Cc1c(Cl)cccc1NC(=O)c1c(O)c2ccccc2[nH]c1=O
-0.49,i,COC(=O)c1sccc1NC(=O)N1Cc2c(sc3c2CCN(C)C3)-n2cccc2C1c1ccc(F)cc1 (stereo unspecified)
-2.75,i,O=C(c1ccoc1)N1CCCN(Cc2cccs2)CC1
0.78,i,Cc1ccccc1-c1nc(C(N)=O)c2c(n1)n(-c1ccc3c(c1)OCO3)c(=O)n2C
-1.49,i,Clc1ccc(-c2noc(-c3ccc(CN4CCOCC4)cc3)n2)cc1
0.25,i,CC(O)(CC(=O)O)CC(=O)O
-0.81,i,O=C1CCSc2ccc(S(=O)(=O)N3CCN(c4ncccn4)CC3)cc2N1
-1.04,i,O=C(C1CCN(S(=O)(=O)c2ccc(-c3noc(-c4ccc(Br)cc4)n3)cc2)CC1)N1CCCC1
-0.66,i,CC1CCN(S(=O)(=O)c2ccc3ncn(CC(=O)N(C)Cc4ccccc4)c(=O)c3c2)CC1
0.37,i,Cc1ccc(C)c(CSc2nnc3c(=O)n(-c4cc(Cl)ccc4C)ccn23)c1
-0.25,i,Cc1noc(C)c1C1CCCN1C(=O)c1ccco1 (stereo unspecified)
-0.17,i,Cc1ccc(-c2nc(CSCC(=O)N3CCN(c4ccccn4)CC3)c(C)o2)cc1
0.81,i,CCOC(=O)C1CCCN(S(=O)(=O)c2ccc(-c3ccno3)s2)C1 (stereo unspecified)
0.28,i,CC(C)OCCCNc1nc(Nc2ccc3c(c2)OCO3)c2cnn(-c3ccccc3)c2n1
1.27,i,COC(=O)c1c(-c2ccc(Cl)cc2)noc1Nc1ccc(F)cc1

# Some of the entries above, reformatted:
SMILES	Choline anaer gr early	Choline anaer gr
Cc1cc2c(cc1S(=O)(=O)N(C)CC(=O)Nc1nccs1)OC(C)C(=O)N2 (stereo unspecified)	0	i
Cc1ccc(-c2nc3n(CC(=O)NC(C)C)c4c(c(=O)n3n2)CCC4)cc1	0.56	i

# Individual results from the list:
# Cc1ccc(-c2nc(CSCC(=O)N3CCN(c4ccccn4)CC3)c(C)o2)cc1 @ Choline anaer gr early: -0.17
# CC(O)(CC(=O)O)CC(=O)O @ Choline anaer gr early: 0.25
# Cc1ccc(C)c(CSc2nnc3c(=O)n(-c4cc(Cl)ccc4C)ccn23)c1 @ Choline anaer gr early: 0.37
# Cc1ccccc1-c1nc(C(N)=O)c2c(n1)n(-c1ccc3c(c1)OCO3)c(=O)n2C @ Choline anaer gr early: 0.78
# Clc1ccc(-c2noc(-c3ccc(CN4CCOCC4)cc3)n2)cc1 @ Choline anaer gr early: -1.49
# O=C(C1CCN(S(=O)(=O)c2ccc(-c3noc(-c4ccc(Br)cc4)n3)cc2)CC1)N1CCCC1 @ Choline anaer gr early: -1.04
# CCOC(=O)C1CCCN(S(=O)(=O)c2ccc(-c3ccno3)s2)C1 (stereo unspecified) @ Choline anaer gr early: 0.81

# Remaining list, next part
Choline anaer gr early,Choline anaer gr,Molecule
-0.25,i,Cc1noc2nc(C)n(CC(=O)NC(C)C(=O)N3CCCCC3)c(=O)c12 (stereo unspecified)
0.09,i,O=c1ccn(-c2cccc(F)c2)nc1-c1nc(-c2ccc(F)c(Br)c2)no1
0.2,i,Fc1ccccc1-c1noc(-c2cc(-c3ccccc3)n[nH]2)n1
-1.1,i,CN(C)CCNCc1ccc(-c2cc(Cl)ccc2Cl)o1

# One compound at a time, as listed above. Order of screens: Choline anaer gr early | Choline anaer gr
# `CN(C)CCNCc1ccc(-c2cc(Cl)ccc2Cl)o1` in the list: -1.1 | i
# `Fc1ccccc1-c1noc(-c2cc(-c3ccccc3)n[nH]2)n1` in the list: 0.2 | i
# `Cc1noc2nc(C)n(CC(=O)NC(C)C(=O)N3CCCCC3)c(=O)c12` (stereo unspecified) in the list: -0.25 | i
# `O=c1ccn(-c2cccc(F)c2)nc1-c1nc(-c2ccc(F)c(Br)c2)no1` in the list: 0.09 | i
